Screens (PubChem)
RanGTP-Imp inh – inhibitors of RanGTP-importin-beta interaction, primary screen, biochemical, FRET, CFP-Ran, YFP-importin-beta, homogeneous. AID 2216. inhibition, % (test concentration not listed). 1.1% of 300,000 active. cell-free CFP-Ran/YFP-importin-beta FRET ratio;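 active = most replicates above 15%; inconclusive = exactly half above 15%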;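 also: 0% = DMSO wells and 100% = Ran loaded with GDP instead of GTP; wells of about 40 µL received 100 nL stock; the first replicate is given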
T cruzi repl – blocks replication of Trypanosoma cruzi. T. cruzi beta-gal in NIH3T3, luminescence, 90 h. inhibition, % (no concentration beside the values). 1.4% of 300,000 active. AID 1885;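 active = mean inhibition across valid replicates above about 55%, limit read from the data; inconclusive = mean below that limit but half or more replicates reach it; inactive = mean below it, under half of replicates reach it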;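 also: signal also drops with host cell toxicity which is not excluded here; 0% = plate median of DMSO wells and 100% = zero luminescence signal; higher percent means less beta-gal luminescence so fewer parasites; stock transfer was 50 nL into about 50 µL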
Ecoli rRNA inh – selective bacterial rRNA inhibition in E. coli | E. coli WT GFP vs humanized-ribosome RFP mutants, fluorescence, 24 h; active compounds read low; DMSO median 0, no signal -100 | 1.6% of 350,000 active | AID 720706 | GFP signal change (wild-type ribosome), % (no concentration beside the values);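 active = significant combined selectivity score with lowered wild-type GFP, culture density cut under 30%, mutant RFP and density less affected; inactive = any of these conditions unmet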; also: one replicate is shown; some compounds called inactive have numbers as strong as hits
Beta apoptosis – blocks beta cell apoptosis | INS-1E cytokine-induced death, ATP luminescence, 48 h; percent of positive-control rescue, neutral wells zero | protection from apoptosis, % (concentration not given with the values) | 0.8% of 300,000 active | AID 435005;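 active = all replicates at 75% or more, or half of them and the mean; inconclusive = half reach 75% but not the mean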;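 also: 0% = cytokine-treated negative control wells and 100% = positive control rescue; higher means more ATP so stronger rescue from cytokine killing; wells of about 40 µL received 100 nL stock; the first replicate is given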
Calb FLC – C. albicans growth modulation with fluconazole; C. albicans CaCi-2 (fluconazole-resistant clinical isolate) + fluconazole, Alamar Blue growth, 48 h; growth inhibition, % (no concentration beside the values); 0.57% of 300,000 active; AID 1979;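 active = most replicates above 75%; inconclusive = exactly half above 75%; inactive = most below 75%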;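 also: all wells also contain fluconazole at 8 µg/ml as a sub-toxic cotreatment; 0% = median of DMSO wells and 100% = median of geldanamycin control wells; wells of about 8 µL received 7.5 nL stock; the first replicate is given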
ALR H2O2 inh – blocks human ALR sulfhydryl oxidase activity. P55789. purified ALR, DTT oxidation, H2O2 HRP-luminol luminescence. inhibition, % (test concentration not listed). 3.8% of 290,000 active. AID 485317;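 active = mean and each replicate at 75% or more; inconclusive = only one of the two met; inactive = neither met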;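 also: stock transfer was 7.5 nL into about 7.5 µL; 0% = neutral wells and 100% = wells with inactivated enzyme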
Target sequence (P55789 whole entry, looked up): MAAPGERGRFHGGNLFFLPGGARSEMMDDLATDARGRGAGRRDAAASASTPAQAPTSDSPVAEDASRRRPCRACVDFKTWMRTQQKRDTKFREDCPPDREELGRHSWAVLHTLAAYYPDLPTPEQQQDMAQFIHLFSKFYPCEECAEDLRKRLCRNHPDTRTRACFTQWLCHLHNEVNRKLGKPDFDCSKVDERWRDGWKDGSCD
FGF22 binding – shifts melting point of recombinant human FGF22 | Q9HCT0 | recombinant FGF22 thermal shift, SYPRO orange fluorescence; percent of sucrose octasulfate shift, DMSO zero | calls only at 9.99 µM | 1.5% of 340,000 active | AID 651658;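 active = melting point raised past a set limit in the mean and every replicate; inconclusive = no clear call; three in four hits are not shown here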
Target sequence (Q9HCT0 whole entry, looked up): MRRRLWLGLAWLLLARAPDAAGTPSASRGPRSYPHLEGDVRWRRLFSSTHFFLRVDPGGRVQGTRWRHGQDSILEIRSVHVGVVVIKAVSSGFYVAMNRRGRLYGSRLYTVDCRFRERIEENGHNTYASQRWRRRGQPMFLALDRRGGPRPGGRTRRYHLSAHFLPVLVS
AF4-AF9 inh – MLL-AF4/AF9 protein interaction inhibition | P42568 | 0.47% of 350,000 active | AID 651704 | AlphaScreen, biotin-AF4 peptide binding to FLAG-AF9 | inhibition, % at 10 µM;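 active = every replicate reaching a set inhibition limit, whatever the replicate mean, cut at about 25% in these data; inconclusive = mean inhibition reaches that limit but some replicates miss it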;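 also: 0% = plate neutral control median and 100% = total signal loss; the record names both 10 and 1 µM as test concentration; the first replicate is given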
Target sequence (P42568 whole entry, looked up): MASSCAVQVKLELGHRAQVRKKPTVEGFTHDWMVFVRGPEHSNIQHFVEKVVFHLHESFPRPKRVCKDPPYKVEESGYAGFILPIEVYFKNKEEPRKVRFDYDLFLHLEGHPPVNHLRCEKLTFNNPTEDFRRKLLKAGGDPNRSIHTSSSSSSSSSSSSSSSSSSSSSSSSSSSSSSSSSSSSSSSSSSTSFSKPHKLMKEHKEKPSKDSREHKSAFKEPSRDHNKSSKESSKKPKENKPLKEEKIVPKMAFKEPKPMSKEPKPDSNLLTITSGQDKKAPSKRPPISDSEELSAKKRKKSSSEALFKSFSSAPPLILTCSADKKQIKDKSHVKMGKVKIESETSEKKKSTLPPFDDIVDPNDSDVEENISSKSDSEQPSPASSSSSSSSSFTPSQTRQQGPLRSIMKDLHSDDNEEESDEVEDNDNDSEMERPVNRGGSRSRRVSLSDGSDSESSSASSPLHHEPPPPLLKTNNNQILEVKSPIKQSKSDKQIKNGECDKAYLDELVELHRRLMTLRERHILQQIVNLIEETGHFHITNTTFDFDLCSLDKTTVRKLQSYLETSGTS
Ecoli rRNA inh OD600 – also measured in Ecoli rRNA inh; calls as there; OD600 change, %; measured here: OD600 growth;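 optical density of the mix in the first replicate; 0 = DMSO median and -100 = no signal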
Ecoli rRNA inh RFP – further read-out of Ecoli rRNA inh, marked with its call; RFP signal change, %; measured here: RFP humanized mutant strains;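 first replicate; 0 = DMSO median and -100 = no signal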
* marks the source's active call; other numbers are inactive results; i = inactive; ? = inconclusive; · = not tested or not shown. These rows are one share of the data (hit frequency here may not be typical).

SMILES	RanGTP-Imp inh	T cruzi repl	Ecoli rRNA inh	Ecoli rRNA inh OD600	Ecoli rRNA inh RFP	Beta apoptosis	Calb FLC	ALR H2O2 inh	FGF22 binding	AF4-AF9 inh
CN(/N=C/c1cc(Cl)cc(Cl)c1O)c1c(Cl)cccc1[N+](=O)[O-]	-1.4	-18.1	0.0	11.4	-0.9	11.3	-2.5	-3.1	i	2.9
CC1CCN(C(=O)CCS(=O)(=O)c2cc3c(cc2Cl)NC(=O)CO3)CC1	-1.7	-6.2	-9.1	-2.7	-6.9	-4.1	1.4	23.4	i	-7.3
COc1c(CC=C(C)C)c(O)cc2oc(=O)c3c4ccc(O)cc4oc3c12	?	5.5	·	·	·	-6.2	18.9	46.6	·	·
NC(=O)CSc1nc2cc3c(cc2c(=O)n1CCCC(=O)NCc1ccc2c(c1)OCO2)OCO3	?	-10.2	·	·	·	0.8	-16.2	-2.2	·	·
COc1ccc(NS(=O)(=O)c2cccc(C(=O)NNC(=O)c3cc(S(N)(=O)=O)ccc3OC)c2)cc1	4.9	-12.0	2.9	9.4	1.3	1.4	11.7	·	i	-10.6
Nc1c(C(=O)C2CC2)sc2nc(-c3cccs3)cc(C(F)(F)F)c12	-87.0	-4.3	·	·	·	-4.3	-0.2	30.3	·	·
FC(F)(F)c1cc(C(F)(F)F)c2ccc(N3CCN(c4ccccc4)CC3)nc2n1	-2.3	41.3	·	·	·	1.3	2.1	-4.9	·	·
Cc1ccc(C(=O)/C=C/NCc2ccc(F)cc2)cc1	30.6*	16.0	·	·	·	-6.6	-4.6	-0.6	·	·
Cn1c(=O)c2c(nc(SCCN3CCOCC3)n2Cc2cccc3ccccc23)n(C)c1=O	?	-15.8	·	·	·	-0.9	24.2	-1.7	·	·
O=c1cc(-c2cccc(Br)c2)oc2cccc(O)c12	-1.4	-7.8	6.0	-2.1	-2.0	0.1	-7.9	-1.5	i	·
CC(C)(C)NC(=O)CSc1nnc(-c2ccncc2)o1	-0.4	-5.2	11.5	10.5	0.5	-6.9	-8.8	-2.8	i	-2.6
CCCCOc1ccc(N(CC(=O)NC2CCCCC2)C(=O)c2snc(C(N)=O)c2N)cc1	3.5	-3.5	1.8	5.3	-0.3	16.6	-14.6	16.1	i	-5.4
O=C(O)c1ccccc1C(=O)Nc1ccccc1NC(=O)c1ccccc1C(=O)O	3.7	-10.2	9.4	5.3	-1.7	·	4.1	-18.0	i	-1.4
COc1cccc2cc(C(=O)N3CCN(c4ccc(C)cc4C)CC3)c(=O)oc12	8.5	5.0	-0.3	3.3	-1.1	2.2	10.3	·	i	2.4
O=C(COC(=O)c1ccc(N2CCOCC2)c([N+](=O)[O-])c1)Nc1ccc2c(c1)OCO2	2.9	-13.1	·	·	·	1.4	-7.2	-6.1	·	·
Cc1cc2cc(CN(Cc3ccco3)S(=O)(=O)c3c(C)ccc4nsnc34)c(=O)[nH]c2cc1C	-2.7	53.2	·	·	·	-2.7	1.3	-0.5	·	·
COc1ccc(/C=C2\N=C(C)OC2=O)cc1OC	0.8	-3.8	6.6	9.0	0.6	-6.0	-7.0	-17.9	i	-9.1
COc1ccc(OCCCC(=O)Nc2ccc3c(c2)OCO3)cc1	-4.4	-4.8	·	·	·	7.8	-21.6	-10.6	·	·
CCOc1ccc(N(CC(=O)NCc2ccccc2)S(=O)(=O)c2ccc(C)cc2)cc1	2.4	19.6	-1.6	0.6	-1.5	-23.7	0.2	·	i	-5.5
Cc1cc(CNC(=O)C2CCC(=O)N(CCc3cccc(F)c3)C2)on1 (stereo not drawn)	?	-17.7	5.0	3.7	-0.3	-4.0	9.1	7.6	i	-2.7
Cc1cc(NC(=O)/C=C/c2cccc(F)c2)n(-c2nc3ccccc3[nH]2)n1	1.2	26.7	0.4	4.3	-2.4	7.9	6.3	-7.4	i	-0.3
Cc1cccc(S(=O)(=O)Nc2cc(Cl)ccc2N2CCOCC2)c1	·	·	1.5	2.9	42.0	24.5	·	2.8	i	1.8
CN(CC(=O)Nc1ccc(F)cc1)C(=O)C1CCN(S(=O)(=O)c2ccc3c(c2)OCCO3)CC1	4.3	4.4	-1.6	-0.3	0.0	-6.4	-5.2	4.2	i	-24.4
COc1ccc(Cl)cc1NC(=O)Cn1c(=O)oc2ccccc21	-0.5	-6.5	4.2	12.9	-0.7	-4.4	-4.5	-11.7	i	0.9
CN=c1scc(-c2cc(OC)ccc2OC)n1/N=C/c1c(C)[nH]c2ccccc12	?	73.4*	8.1	2.8	-0.6	6.2	-14.6	15.7	i	0.6
CCn1nc(NC(=O)COC)c2cc3cccc(C)c3nc21	43.8*	2.3	-24.4	-24.2	-2.4	-5.5	1.1	-54.1	i	-29.4
COc1ccc(N2CCN(S(=O)(=O)c3ccc(Cl)s3)CC2)cc1	1.7	26.2	5.2	-1.0	-9.0	4.8	1.7	-42.1	i	0.3
CCn1c(SCC(=O)N2CCCCC2)nc2c1c(=O)n(C)c(=O)n2C	-1.0	-3.1	1.6	-4.5	0.6	-2.8	4.5	-6.0	i	0.0
CC(C)(C)c1ccc(-c2ccc3c(c2)S(=O)(=O)c2ccccc2C3=O)cc1	-4.3	-23.5	·	·	·	-1.4	6.3	-1.0	·	·
CCOC(=O)C1(P(=O)(c2ccccc2)c2ccccc2)CCC1	7.4	-11.0	·	·	·	-1.2	-1.7	-7.7	·	·
COc1ccc2c(=O)c(Oc3ccc(C(=O)O)cc3)c(C(F)(F)F)oc2c1	3.7	-15.9	8.5	-10.5	-2.6	5.0	-2.9	2.1	i	-0.9
O=C([C@@H]1CC=C[C@@H]2CCN(C3CCCCC3)C(=O)[C@@H]21)N1CCN(c2ccccc2)CC1	1.0	1.8	-16.7	-7.7	2.1	6.3	3.2	·	i	·
O=C(CCCN1C(=O)/C(=C/c2cccs2)SC1=S)Nc1ccccn1	-4.7	23.3	4.8	4.9	3.5	-7.3	3.4	-14.1	i	1.2
Cc1ccc(NC(=O)COC(=O)C2COc3ccccc3O2)cc1 (stereo not drawn)	·	·	23.0	12.5	2.6	1.3	·	-2.8	i	-1.8
COc1ccccc1NC(=O)N1CCC(NC(=O)C(Cc2ccccc2F)NC(C)=O)CC1 (stereo not drawn)	1.4	5.0	11.8	11.5	-0.6	4.6	-8.0	·	·	0.5
N#Cc1ccc(N2C(=O)[C@@H]3C(C(=O)c4ccc5ccccc5n4)=NN[C@@H]3C2=O)cc1	-0.2	-7.8	·	·	·	1.1	?	5.5	i	-6.5
O=C(c1ccccc1)N1CCN(C2C3CC4CC(C3)CC2C4)CC1 (stereo not drawn)	-0.9	12.4	·	·	·	6.1	-4.4	2.6	·	·
Cc1cccc(N(C(=O)Nc2ccccc2)C2=NCC(C)S2)c1 (stereo not drawn)	1.7	-13.8	5.8	5.1	0.9	·	-2.0	59.2	i	1.0
CCN(CC)S(=O)(=O)c1cccc(-c2n[nH]c(=S)n2/N=C/c2ccc(C(=O)OC)cc2)c1	-3.1	9.2	·	·	·	-1.0	2.2	-31.5	·	·
COc1ccccc1-c1coc2c(CN3CCOCC3)c(O)ccc2c1=O	1.4	-0.9	·	·	·	-2.3	-1.4	-8.1	i	0.9
CC(C)(C)Nc1c2ccccc2nc2ccccc12	28.1*	?	-4.9	5.0	-11.5	·	-6.0	2.9	i	3.8
O=C(Cn1nc(-c2ccccc2)c2ccccc2c1=O)Nc1cccc(O)c1	2.9	12.3	-25.3	-26.9	-10.5	3.1	-4.2	25.2	i	0.6
CCC(C)[C@H](NC(=O)NC1CCN(Cc2ccccc2)CC1)C(=O)OC (stereo partly drawn)	-1.3	-4.8	·	·	·	-1.6	8.6	-2.6	·	·
COc1ccc(S(=O)(=O)N2CCCC(C(=O)NCc3ccc(F)cc3)C2)cc1 (stereo not drawn)	-1.3	-6.2	-5.9	4.8	0.8	-11.9	-3.8	-1.7	i	0.3
O=C(COC(=O)C1CC(=O)N(c2nc(-c3ccccc3)cs2)C1)c1ccccc1 (stereo not drawn)	-1.4	0.9	·	·	·	-1.3	7.3	0.5	·	·
CCN(C(=O)CSc1nc2cc(C(F)(F)F)ccc2n1Cc1ccccc1)C1CCS(=O)(=O)C1 (stereo not drawn)	-2.0	44.3	-6.6	-14.6	-2.5	2.0	-0.7	-3.3	i	-13.8
Cc1ccnc(NC(=O)c2cc3cc(F)ccc3s2)c1	3.0	-8.6	-9.2	-13.3	-11.8	-23.3	-3.8	-4.9	i	-3.5
O=C(c1cnn2c(C(F)F)cc(C3CC3)nc12)N1CCCC1	-1.2	-3.4	·	·	·	-8.7	-4.1	0.9	·	·
O=C(c1ccc(OC2CCN(CCc3ccccc3)CC2)cc1)N1CCCC(CCCO)C1 (stereo not drawn)	0.0	8.0	14.8	18.4	4.7	-2.9	21.2	-2.9	i	0.1
O=C1C=C(NC2CCCC2)CC(c2ccccc2)C1 (stereo not drawn)	2.7	4.3	3.4	-1.6	-1.1	1.3	-27.7	1.2	i	-2.7
COc1cccc(Nc2ccc(N3CCCCC3)cc2)c1OC	·	·	·	·	·	64.3	·	99.6*	i	18.9
COc1ccc2c(C)c(C(=O)O)oc2c1	-4.8	-8.3	·	·	·	-1.1	8.8	·	·	·
CSc1nc2sc3c(c2c(=S)[nH]1)CC(C)(C)OC3	-6.1	2.0	-0.8	-0.7	2.3	0.1	-8.9	-6.6	i	0.5
O=C(COC(=O)/C=C/c1cccs1)NC(=O)Cc1ccccc1	-1.7	8.1	-0.2	-4.1	0.2	1.1	0.2	-5.7	i	-2.4
O=C(Cn1cnc2ccccc21)NCc1ccccc1	1.0	-15.2	·	·	·	-1.6	-13.1	-3.2	·	·
Cc1cc(OC(=O)c2cc(F)c(F)cc2Cl)nc(C)n1	-0.1	-27.8	12.7	12.3	2.2	-1.9	-7.4	1.0	·	·
O=CN1CCCN(C(=O)CC2C(=O)NCCN2Cc2cccc(Oc3ccccc3)c2)CC1 (stereo not drawn)	0.8	-2.8	4.7	6.4	0.3	-1.0	-7.0	-13.4	i	3.5
CC(=O)Nc1ccc(S(=O)(=O)c2ccc(N)cc2)cc1N	1.3	-3.8	8.5	8.9	0.9	·	-1.9	56.5	i	-2.6
NC(=O)c1ccccc1NC(=O)NC1CCCCC1	9.2	-6.5	7.6	10.3	0.5	-1.6	4.7	-21.1	·	·
COc1ccc(NS(=O)(=O)c2cc(NC(=O)c3ccc(Cl)cc3)ccc2N2CCOCC2)cc1	·	·	2.1	6.6	-2.8	30.8	·	-1.6	i	0.9

Given with values under each structure: part of the list above
Every second line gives: RanGTP-Imp inh, T cruzi repl, Ecoli rRNA inh, Ecoli rRNA inh OD600, Ecoli rRNA inh RFP, Beta apoptosis, Calb FLC, ALR H2O2 inh, FGF22 binding, AF4-AF9 inh
- COc1ccc(S(=O)(=O)N2CCCC(C(=O)NCc3ccc(F)cc3)C2)cc1 (stereo not drawn)
→ -1.3, -6.2, -5.9, 4.8, 0.8, -11.9, -3.8, -1.7, i, 0.3
- O=CN1CCCN(C(=O)CC2C(=O)NCCN2Cc2cccc(Oc3ccccc3)c2)CC1 (stereo not drawn)
→ 0.8, -2.8, 4.7, 6.4, 0.3, -1.0, -7.0, -13.4, i, 3.5
